Screening results: PubChem BioAssay, Broad Institute
PD-1 reversal: reversal of PD-1 mediated T-cell inhibition; primary human CD4 T cells, PD-L1 beads, CellTiter-Glo 96 h; activation, % (concentration not given with the values); 29,000 tested, under 10 active; AID 2316;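 active = replicate mean of 50% or more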;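 note: 0% = median vehicle wells and 100% = positive control; 100 nL library stock added to about 50 µL; numbers are from one replicate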
Hedgehog inh: Sonic Hedgehog pathway inhibition. Shh-LIGHT2 Gli-luciferase reporter, 30 h. inhibition, % (concentration not given with the values). 22,000 compounds, 2.1% hits;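 active = replicate mean of 65% or more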;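 note: pathway switched on by Shh-conditioned medium diluted 1 in 25 in low serum; 100 nL library stock added to about 40 µL; 0% = median of neutral wells and 100% = positive control level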
MITF inhib: MITF inhibition; AID 2240; TRPM1 promoter luciferase, luminescence, 24 h; 37,000 compounds, 0.28% hits; inhibition, % (no concentration beside the values);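 active = most replicates at 85% or more, or half of them and the mean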;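 note: human melanocyte line stably carrying TRPM1 promoter luciferase reporter; 0% = vehicle wells and 100% = a positive control; the first replicate is given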
YB-1 expression: YB-1 expression inhibition | 30,000 compounds, 0.37% hits | delta delta Cp (YB-1 minus CDIP) (concentration not given with the values) | U2OS, qRT-PCR YB-1 vs CDIP delta delta Cp, 16 h; active compounds read high; zero = DMSO, each unit about twofold;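 active = delta delta Cp rounded down to an integer at or above 3, about 3 SD of DMSO wells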;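 note: higher means less YB-1 transcript or more CDIP transcript relative to DMSO; stock transfer was 100 nL into about 100 µL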
* hit, by the source's call. A portion of the library; count on the stated rates, not on these rows.

Screening NCCCC[C@H](N)C(=O)N[C@@H](Cc1ccccc1)C(=O)N[C@@H](Cc1ccc(O)cc1)C(=O)O returned Hedgehog inh -41.0, MITF inhib -8.2 and YB-1 expression -0.617.
Screening NNC(=O)c1cc2c(s1)-c1ccccc1CC2 returned PD-1 reversal -21.7, Hedgehog inh -63.6, MITF inhib -5.1 and YB-1 expression 0.398.
For CCOc1ccc2nc(SCC(=O)Nc3ccc4c(c3)OCCO4)sc2c1 the results were PD-1 reversal 1.1 and MITF inhib -38.0.
For COc1ccc(S(=O)(=O)N(C)C[C@@H]2Oc3ccc(NC(=O)c4ccncc4)cc3C(=O)N([C@@H](C)CO)C[C@@H]2C)cc1 the results were PD-1 reversal 1.6, MITF inhib -9.8 and YB-1 expression 0.0217.
`COc1cc(S(=O)(=O)NCc2ccccn2)c(OC)cc1Cl` gave PD-1 reversal 1.5 and MITF inhib -15.4.
`C[C@H]1CN([C@@H](C)CO)C(=O)c2cc(NC(=O)CCCN(C)C)ccc2O[C@H]1CN(C)C(=O)NC1CCCCC1` gave PD-1 reversal 1.0, Hedgehog inh -4.2, MITF inhib -1.0 and YB-1 expression 0.205.
Screening CCCN(Cc1cc2cccc(C)c2[nH]c1=O)C(=O)c1cccc(Cl)c1 returned PD-1 reversal -0.7 and MITF inhib -29.5.
C[C@@H]1CN([C@H](C)CO)C(=O)Cc2cc(NC(=O)CCC(F)(F)F)ccc2O[C@@H]1CN(C)C was read as PD-1 reversal -0.4, Hedgehog inh -29.2, MITF inhib 4.7 and YB-1 expression -0.716.
COc1ccc(C(=O)NCCn2cc(SCC(=O)N3CCCCC3)c3ccccc32)cc1 was read as PD-1 reversal 0.0, Hedgehog inh -13.0, MITF inhib 15.5 and YB-1 expression -0.33.
`O=C(NCc1ccco1)c1ccccc1NC(=O)C1CC(=O)N(c2ccc(Cl)cc2)C1` (stereo not given) gave PD-1 reversal 1.6 and MITF inhib -30.5.

The final 3 entries of the part before are carried over, then new ones follow:
C[C@@H]1CN([C@H](C)CO)C(=O)Cc2cc(NC(=O)CCC(F)(F)F)ccc2O[C@@H]1CN(C)C was read as PD-1 reversal -0.4, Hedgehog inh -29.2, MITF inhib 4.7 and YB-1 expression -0.716.
COc1ccc(C(=O)NCCn2cc(SCC(=O)N3CCCCC3)c3ccccc32)cc1 was read as PD-1 reversal 0.0, Hedgehog inh -13.0, MITF inhib 15.5 and YB-1 expression -0.33.
`O=C(NCc1ccco1)c1ccccc1NC(=O)C1CC(=O)N(c2ccc(Cl)cc2)C1` (stereo not given) gave PD-1 reversal 1.6 and MITF inhib -30.5.
For COc1ccc(CN(C)C[C@H]2Oc3c(NC(=O)Nc4ccc(OC)cc4)cccc3C(=O)N([C@H](C)CO)C[C@@H]2C)cc1 the results were PD-1 reversal -2.4, Hedgehog inh 7.9, MITF inhib -9.5 and YB-1 expression 0.244.
C[C@H](CO)N1C[C@H](C)[C@H](CN(C)Cc2ccc(-c3ccccc3)cc2)Oc2ccc(NS(=O)(=O)c3cccs3)cc2C1=O was read as PD-1 reversal 0.6, Hedgehog inh 16.1, MITF inhib -18.6 and YB-1 expression -0.0685.
Cc1noc(C)c1S(=O)(=O)N(C)C[C@H]1Oc2ccc(NS(=O)(=O)c3ccccc3)cc2C(=O)N([C@@H](C)CO)C[C@H]1C was read as PD-1 reversal -0.6, MITF inhib -5.9 and YB-1 expression 0.0903.
`COc1ccc2c(c1OC)C(=O)N1c3ccccc3N=C(c3ccc(Br)cc3)CC21` (stereo not given) gave PD-1 reversal -1.5, Hedgehog inh 13.7, MITF inhib 4.3 and YB-1 expression 9.64*.
Screening COc1cccc(-c2ncc(-c3ccccc3)o2)c1 returned PD-1 reversal -0.3, Hedgehog inh -328.8, MITF inhib 61.3 and YB-1 expression 0.026.
For C[C@@H]1CN([C@H](C)CO)C(=O)Cc2cc(N(C)C)ccc2O[C@@H]1CN(C)C(=O)Nc1cccc2ccccc12 the results were PD-1 reversal 0.6, MITF inhib -3.6 and YB-1 expression -0.394.
For C[C@H](CO)N1C[C@H](C)[C@H](CN(C)Cc2ccncc2)Oc2c(NC(=O)NC3CCCCC3)cccc2C1=O the results were PD-1 reversal 0.0, Hedgehog inh 1.1, MITF inhib 3.0 and YB-1 expression 0.195.
C[C@@H]1CN([C@@H](C)CO)C(=O)c2cccc(NC(=O)Nc3ccc(F)cc3)c2O[C@@H]1CN(C)S(C)(=O)=O was read as PD-1 reversal -2.8, Hedgehog inh 4.8, MITF inhib -7.3 and YB-1 expression -0.0311.
Screening COC(=O)CSc1nnc(C2COc3ccccc3O2)n1-c1ccccc1 (stereo not given) returned PD-1 reversal 0.1 and MITF inhib -12.6.
For CC(=O)OCC1(C)CC2[C@]3(CO[C@@]24CCC2[C@@]5(C)CC[C@H](O[C@@H]6OC[C@@H](O)[C@H](O)[C@H]6O)[C@@](C)(CO)C5CC[C@@]2(C)[C@]4(C)C[C@H]3O)[C@@H](O)C1 (stereo not given in full) the results were PD-1 reversal -6.3, Hedgehog inh 76.0*, MITF inhib 6.7 and YB-1 expression -0.495.
Screening O=C(Cc1ccccc1[N+](=O)[O-])Nc1ccccc1C(=O)N1CCOCC1 returned PD-1 reversal 2.1 and MITF inhib -10.0.
For CC1(C)CC(=O)C=C(SCC(=O)Nc2cc(C(F)(F)F)cc(C(F)(F)F)c2)S1 the results were PD-1 reversal -1.7, Hedgehog inh 92.1*, MITF inhib 52.5 and YB-1 expression -0.0249.
C[C@@H]1CN([C@H](C)CO)C(=O)Cc2cc(NS(C)(=O)=O)ccc2O[C@H]1CN(C)C(=O)Nc1ccc(C(F)(F)F)cc1 was read as PD-1 reversal -0.4, Hedgehog inh -27.8, MITF inhib -1.8 and YB-1 expression -0.412.
COc1ccc([N+](=O)[O-])cc1N(CC(=O)N1CCCCC1)S(C)(=O)=O was read as PD-1 reversal 0.9 and MITF inhib -15.7.
Screening O=C(Nc1cccc(C(F)(F)F)c1)Nc1cc(Cl)ccc1C(=O)O returned PD-1 reversal 2.7, Hedgehog inh -17.0, MITF inhib -7.4 and YB-1 expression 0.0982.
C[C@H]1CN([C@@H](C)CO)C(=O)c2cccc(NC(=O)C3CCOCC3)c2O[C@H]1CN(C)C(=O)Nc1ccc2c(c1)OCO2 was read as PD-1 reversal 1.1, Hedgehog inh -8.6, MITF inhib 8.9 and YB-1 expression -0.534.
Screening Cc1csc2sc(-c3ccnc(SCC(=O)NCc4ccccc4)n3)c(C)c12 returned PD-1 reversal -1.6, MITF inhib -4.5 and YB-1 expression 0.261.
`Cc1ccc(S(=O)(=O)Nc2ccc3c(c2)C(=O)N([C@H](C)CO)C[C@H](C)[C@@H](CN(C)CC2CCCCC2)O3)cc1` gave PD-1 reversal 0.7, Hedgehog inh -8.8, MITF inhib 0.6 and YB-1 expression 0.107.
For COc1ccc(NC(=O)Nc2ccc3c(c2)C(=O)N([C@H](C)CO)C[C@H](C)[C@H](CN(C)S(=O)(=O)c2ccc(F)cc2)O3)cc1 the results were PD-1 reversal -0.6, MITF inhib 0.1 and YB-1 expression 10*.
`CC(C)(C)c1cn2c3ccccc3nc2n1CCCN1CCCCC1` gave PD-1 reversal -1.1 and MITF inhib 2.2.
For Cc1cc(N(CC(=O)Nc2ccc(Cl)c(Cl)c2)S(C)(=O)=O)ccc1Br the results were PD-1 reversal -5.7 and MITF inhib 10.0.
`COc1ccc(NC(=O)N(C)C[C@H]2Oc3c(NS(=O)(=O)c4ccc(C)cc4)cccc3C(=O)N([C@@H](C)CO)C[C@H]2C)cc1` gave PD-1 reversal 1.5, Hedgehog inh -19.1, MITF inhib 9.4 and YB-1 expression -0.486.
For C[C@@H]1CN([C@H](C)CO)C(=O)c2cc(NC(=O)Cc3ccccc3)ccc2O[C@@H]1CN(C)C(=O)Nc1ccc(F)cc1 the results were PD-1 reversal 0.1, Hedgehog inh 13.3, MITF inhib -1.7 and YB-1 expression -0.0208.
O=C(/C=C/c1ccc(O)c(O)c1)OCCc1ccccc1 was read as PD-1 reversal -11.3, Hedgehog inh 76.9*, MITF inhib -31.7 and YB-1 expression 0.163.
Screening C[C@@H]1CN([C@H](C)CO)C(=O)c2cc(NC(=O)CCCN(C)C)ccc2O[C@H]1CN(C)S(=O)(=O)c1cccs1 returned PD-1 reversal 2.0, MITF inhib -10.3 and YB-1 expression 0.534.
Screening CC(C)NC(=O)N(C)C[C@@H]1Oc2c(NS(=O)(=O)c3cccs3)cccc2C(=O)N([C@@H](C)CO)C[C@H]1C returned PD-1 reversal 0.4, Hedgehog inh -33.1, MITF inhib 1.4 and YB-1 expression -0.143.
For Cc1noc(C)c1NC(=O)Nc1ccc2c(c1)C(=O)N([C@@H](C)CO)C[C@H](C)[C@H](CN(C)CC1CCCCC1)O2 the results were PD-1 reversal 1.0, MITF inhib -14.8 and YB-1 expression -0.209.
Screening C[C@H](CO)N1C[C@H](C)[C@H](CN(C)C(=O)Nc2cccc3ccccc23)Oc2ccc(NC(=O)Nc3ccc(C(F)(F)F)cc3)cc2CC1=O returned Hedgehog inh -37.4, MITF inhib 3.6 and YB-1 expression 0.0961.
`COc1ccc(S(=O)(=O)N(C)C[C@H]2Oc3ccc(NC(=O)Cn4cnnn4)cc3CC(=O)N([C@H](C)CO)C[C@H]2C)cc1` gave PD-1 reversal 1.9, Hedgehog inh 34.8, MITF inhib -9.3 and YB-1 expression 0.408.
For C[C@@H]1CN([C@H](C)CO)C(=O)Cc2cc(NS(=O)(=O)c3cn(C)cn3)ccc2O[C@@H]1CN(C)CC1CC1 the results were PD-1 reversal 0.9, Hedgehog inh -14.6, MITF inhib -2.3 and YB-1 expression -0.158.
`Cc1ccc(NC(=O)C2CC(=O)n3c(nc4ccccc43)N2)cc1Cl` (stereo not given) gave PD-1 reversal -1.5 and MITF inhib -12.1.
`CC(C)NC(=O)N(C)C[C@H]1Oc2ccc(NC(=O)Nc3ccc4c(c3)OCO4)cc2C(=O)N([C@@H](C)CO)C[C@H]1C` gave PD-1 reversal 1.9, Hedgehog inh -29.6, MITF inhib 0.8 and YB-1 expression 0.259.
Cc1noc(C)c1S(=O)(=O)Nc1ccc2c(c1)CC(=O)N([C@@H](C)CO)C[C@H](C)[C@@H](CN(C)S(=O)(=O)c1cn(C)cn1)O2 was read as PD-1 reversal 1.2, Hedgehog inh -36.8, MITF inhib -1.0 and YB-1 expression -0.109.
Screening COc1ccc(N(CC(=O)Nc2cccc([N+](=O)[O-])c2C)S(C)(=O)=O)cc1Cl returned PD-1 reversal 0.7 and MITF inhib -1.1.
`COc1ccccc1NC(=O)CSc1nnnn1-c1cc(C)cc(C)c1` gave PD-1 reversal 1.7 and MITF inhib 19.3.
Screening C[C@H]1CN([C@@H](C)CO)C(=O)Cc2cc(NC(=O)C3CC3)ccc2O[C@@H]1CN(C)C(=O)Nc1ccc(C(F)(F)F)cc1 returned PD-1 reversal -0.2, Hedgehog inh -2.7, MITF inhib -1.7 and YB-1 expression 0.00921.
`COc1ccc(NC(=O)Nc2ccc3c(c2)C(=O)N([C@H](C)CO)C[C@@H](C)[C@H](CN(C)Cc2ccc(C(F)(F)F)cc2)O3)cc1` gave PD-1 reversal -1.4, MITF inhib -5.0 and YB-1 expression -0.106.
For C[C@@H]1CN([C@@H](C)CO)C(=O)c2cc(NC(=O)Nc3ccc4c(c3)OCO4)ccc2O[C@H]1CN(C)C(=O)Nc1ccc(C(F)(F)F)cc1 the results were PD-1 reversal -2.0, Hedgehog inh -5.1, MITF inhib 17.4 and YB-1 expression 0.0928.
For COc1ccc(S(=O)(=O)N(C)C[C@@H]2Oc3ccc(NC(=O)CCCCCC(=O)Nc4ccccc4N)cc3CC(=O)N([C@@H](C)CO)C[C@@H]2C)cc1 the results were PD-1 reversal -1.2, MITF inhib -5.8 and YB-1 expression -0.448.
C[C@@H]1CN([C@H](C)CO)C(=O)c2cc(NC(=O)CCN3CCOCC3)ccc2O[C@H]1CN(C)Cc1ccccc1 was read as Hedgehog inh -11.7, MITF inhib -8.4 and YB-1 expression -0.148.
`C[C@@H]1CN([C@@H](C)CO)C(=O)c2cccc(NC(=O)NC3CCCCC3)c2O[C@@H]1CN(C)Cc1ccc(C(=O)O)cc1` gave PD-1 reversal 2.1, Hedgehog inh 43.8, MITF inhib 2.7 and YB-1 expression -0.00661.
For C[C@H](CO)N1C[C@H](C)[C@@H](CN(C)C(=O)Nc2ccc(C(F)(F)F)cc2)Oc2ccc(NC(=O)CCN3CCOCC3)cc2C1=O the results were PD-1 reversal -0.1, Hedgehog inh 5.5, MITF inhib -5.8 and YB-1 expression -0.354.
C[C@H](CO)N1C[C@H](C)[C@H](CN(C)S(=O)(=O)c2ccc(F)cc2)Oc2ccc(NC(=O)CCN3CCOCC3)cc2CC1=O was read as PD-1 reversal 0.4, Hedgehog inh -34.8, MITF inhib -0.7 and YB-1 expression -0.0846.
C[C@H]1CN([C@@H](C)CO)C(=O)Cc2cc(NS(=O)(=O)c3ccccc3)ccc2O[C@@H]1CN(C)S(=O)(=O)c1ccc(F)cc1 was read as PD-1 reversal -0.3, Hedgehog inh -8.1, MITF inhib 1.1 and YB-1 expression 0.115.
`OC(Cc1ccccc1)(c1ccccc1)c1ccccc1N=Cc1ccc2c(c1)OCO2` (stereo not given) gave PD-1 reversal 0.3, Hedgehog inh 14.7, MITF inhib 14.5 and YB-1 expression -0.185.
For Cc1cc(NC(=O)CSc2nnnn2-c2ccccc2)ccc1Cl the results were PD-1 reversal 2.2 and MITF inhib -4.2.
